Compound activity as filed in PubChem BioAssay.
Menin MLL FP FL: menin-MLL binding inhibition, fluorescein peptide. Fluorescence polarization, fluorescein-MLL peptide displacement from menin. FP activity change, % at 61.4 µM. 290,000 tested, under 10 active. AID 1766; inconclusive = falling polarisation curve, or a change in total fluorescence; inactive = total fluorescence flat and polarisation flat or rising; no compound was filed as active; the % refers to the polarisation; negative = inhibition;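 also: % of control where 0% means no effect; inhibitors lower the polarisation; unlabelled MLL peptide was the positive control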
Sfp inh: inhibitors of Bacillus subtilis Sfp phosphopantetheinyl transferase. Potency, µM, for the others: max response, negative = inhibition, actives largely listed as inhibitors. Biochemical Sfp PPTase activity, qHTS. 310,000 tested, 3.5% active. Q9F4F7; active = well fitted inhibition curve with a large enough effect; inconclusive = small, poorly fitted or top-dose-only effect, or another doubt; inactive = no such curve, though single readings can be large or run the other way;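 also: the enzyme is Sfp with the accession as filed and its product quenches rhodamine fluorescence; potency is read from the fitted curve at half-maximal effect; 0% = enzyme reaction without inhibitor and -100% = no enzyme wells; top concentration of the series not given in the record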
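After 15 min at room temperature with compound, 15 nM Sfp received 5 uM rhodamine-CoA plus 12.5 uM BHQ-2-ybbR (50 mM Hepes pH 7.6, 10 mM MgCl2). Rate came from the fluorescence difference over 30 min, ex 525/em 598 nm.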
PINK1 expr mod: changes PINK1 expression; Potency, µM (highest dose often 76.6 µM), inactives show top-dose activation (PINK1 increase), most hits filed as activators; 410,000 tested, 0.2% active; AID 624263; PINK1 immunofluorescence, high-content cytometry, 24 h; active = well fitted activation curve with a large enough effect; inconclusive = small, poorly fitted or top-dose-only effect; inactive = flat fitted curve, though single readings scatter; cell line not stated here;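 also: potency is read from the fitted curve at half-maximal effect; % of control where 0% means no effect; nearly all actives have a fitted effect of over 65% in size; a mitochondrial uncoupler was the plate control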
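PINK1 protein, normally rapidly degraded, was detected by immunofluorescence after 24 hour compound treatment of a stable cell line. Titration data (5 concentrations) came from laser-scanning cytometry, with CCCP-treated wells as controls.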
gsp ag: gsp mutant agonism; gsp mutant cells, cAMP HTRF, 30 min; control for the full effect not named in the record; Potency, µM (top dose mostly 76.9 µM), for the others: top-dose activation (cAMP increase), actives largely listed as activators; 340,000 tested, 0.13% active; active = well fitted activation curve with a large enough effect; inconclusive = small, poorly fitted or top-dose-only effect, or another doubt; inactive = no such curve, though single readings can be large or run the other way; cell line not stated here;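 also: phosphodiesterase inhibitor Ro 20-1724 added with compounds to block cAMP breakdown; potency is read from the fitted curve at half-maximal effect; nearly all actives have a fitted effect of over 60% in size; about a fifth of the inactives were tested at one dose only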
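Cells in DMEM/10% FBS with G418 were pretreated with compounds in DMSO plus […] (300 uM stock) for 30 min at 37C. cAMP was measured by HTRF (cAMP-d2 plus anti-cAMP antibody-K) after 30 min at room temperature.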
ClpP mod: qHTS Assay for Activators of ClpP; Potency, µM (top dose mostly 57.5 µM), for inactives: top-dose activity change, negative = active; AID 651965, 2013; ATP-dependent Clp protease proteolytic subunit (Bacillus subtilis (strain 168)), P80244; 340,000 tested, 1.9% active; purified B. subtilis ClpP, FRET peptide cleavage, 20 min; active = well fitted falling curve with a large enough effect; inconclusive = small, poorly fitted or top-dose-only effect; inactive = no such curve, though single readings can be large or run the other way; also: potency is read from the fitted curve at half-maximal effect; the source files actives as falling curves though it sought activators and does not explain the sign; nearly all actives have a fitted effect of over 65% in size; many hits overshoot -100%
Target sequence (P80244 whole entry, looked up): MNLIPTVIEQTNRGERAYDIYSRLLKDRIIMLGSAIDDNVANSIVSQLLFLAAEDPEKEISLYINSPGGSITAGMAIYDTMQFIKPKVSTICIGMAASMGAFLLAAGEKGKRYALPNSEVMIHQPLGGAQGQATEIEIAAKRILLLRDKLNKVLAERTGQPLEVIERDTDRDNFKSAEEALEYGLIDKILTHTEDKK
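ClpP 10 microg/mL final, pH 8 Tris/KCl buffer with BSA, glycerol, Tween-20; compound pinned in; FRET-FV substrate; RT 20 min; Ex320/Em430; ΔFRET vs ADEP 5.8 microM, DMSO, no enzyme.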
D2 agonist: agonists of human D2 dopamine receptor (beta-arrestin); DiscoveRx PathHunter D2 beta-arrestin, luminescence, 90 min; 100% = 57 uM dopamine signal; 360,000 tested, 0.084% active; P14416; activation, % (test concentration not listed); in the data active = activation above about 40%; inconclusive = about 15% to 40%; inactive = below about 15%; also: compound concentration not given in the record; the text of the record calls up to 30% inactive
Target sequence (P14416 whole entry, looked up): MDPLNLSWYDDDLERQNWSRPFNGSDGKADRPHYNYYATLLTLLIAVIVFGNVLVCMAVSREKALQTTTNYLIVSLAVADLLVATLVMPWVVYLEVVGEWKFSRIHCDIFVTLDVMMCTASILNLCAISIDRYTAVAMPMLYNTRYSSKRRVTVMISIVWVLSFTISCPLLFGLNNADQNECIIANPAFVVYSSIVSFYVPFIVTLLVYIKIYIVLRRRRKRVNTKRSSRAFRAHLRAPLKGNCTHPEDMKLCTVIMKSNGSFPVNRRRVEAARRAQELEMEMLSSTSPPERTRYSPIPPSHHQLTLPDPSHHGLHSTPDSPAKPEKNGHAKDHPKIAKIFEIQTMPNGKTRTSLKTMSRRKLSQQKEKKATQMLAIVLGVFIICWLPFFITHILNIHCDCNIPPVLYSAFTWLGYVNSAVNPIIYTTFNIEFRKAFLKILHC
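Agonist mode: compounds alone added to overnight-plated D2 PathHunter cells for 90 min at 37 C, with 57 uM final dopamine (EC100) defining full response. Beta-arrestin recruitment detected by chemiluminescent reagent, read after 1 h at ambient temperature.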
gsp antagonist: gsp mutant antagonism | gsp-mutant cells, cAMP HTRF, 30 min; control for the full effect not named in the record | Potency, µM (highest dose often 76.9 µM), inactives show at the top dose activity change, negative = inhibition, most hits filed as inhibitors | 340,000 tested, 0.4% active | AID 624288; active = falling curve of any shape with a large fitted effect; inconclusive = falling curve, mostly with a smaller effect; inactive = flat or rising curve; cell line not stated here;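 also: intracellular cAMP measured with PDE inhibitor Ro 20-1724 present during compound exposure; potency is read from the fitted curve at half-maximal effect; % is scaled to controls: 0 for no effect and ±100 for the full control effect; nearly all actives have a fitted effect of over 65% in size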
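HTRF cAMP read-out (cAMP-d2 plus anti-cAMP antibody-K in lysis buffer, 30 min RT). Before lysis, cells are exposed to compounds with […] for 30 min at 37C in DPBS containing Ca/Mg, BSA and Tween 20.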
Active calls of the source: *; ? = inconclusive; / = no result given; & = joins results of further samples; [ ] = another dose, or the depositor's remark.

mol	Menin MLL FP FL	Sfp inh	PINK1 expr mod	gsp ag	ClpP mod	D2 agonist	gsp antagonist
CN1CCN(C(=O)c2cnn(-c3ccccc3)c2NC(=O)c2ccccc2Br)CC1	-9.8	1%	0.8%	27%[15.4 µM]	/	-1.0	-27%
CC(C)[C@H](NC(=O)c1ccco1)C(=O)OCC(=O)Nc1ccc(Cl)c(S(=O)(=O)N(C)C)c1	-0.3	-12%	0.4%	7%[15.4 µM]	/	-0.3	-18%
Cc1cccc(C)c1NC(=O)C(NC(=O)c1ccccn1)c1ccccc1[N+](=O)[O-] (stereo unspecified)	1.4	10%	1.2%	-14%	-0.2%	-3.1	-22%
O=C(c1ccc2c(c1)OCO2)N1CCN(c2ncccn2)CC1	6.8	13%	0.4%	11%	-8.1%	-2.7	29%
Cn1cccc1CC(=O)N/N=C/c1ccc(Cl)c([N+](=O)[O-])c1	2.5	-16%	2.4%	-8%	0.6%	-0.7	-6%
Cc1ccc(-c2csc(NC(=O)CN3CCC(C(N)=O)CC3)n2)cc1	-3.8	-3%	0.7%	-3%[15.4 µM]	0.7%	-3.1	-4%
COCCNC(=S)Nc1ccc([N+](=O)[O-])cc1C	-0.6	56µM*	-0.4%	?	1.0%	-0.2	12%
O=c1[nH]n(Cc2ccccc2)c(=O)c2ccccc12	8.1	16%	3.8%[38.3 µM]	?	-9.8%	-3.7	4%
Cc1cc2ccccc2n1CCNC(=O)C1CCCCC1	-16	2%	4.6%	8%	-1.7%	1.6	2%
CCCCN1CCN=C1Nc1ccccc1	-5.0	16%	-0.7%	-21%	-0.7%	-3.1	6%
CC(O)(c1ccc(F)c(F)c1)c1nc(-c2ccccc2)cs1 (stereo unspecified)	/	/	17%	/	-0.4%	7.2	/
COc1ccc(N(CC(=O)O)S(=O)(=O)c2ccc(C)cc2)cc1Cl	4.3	?	-0.3%	-8%[15.4 µM]	/	-1.0	14%
COc1ccccc1N(C)S(=O)(=O)c1ccc(Cl)c(C(=O)NCc2ccco2)c1	/	/	0.6%	2%[15.4 µM]	0.8%	-0.6	-19%
Cc1ccccc1OCC(=O)OCC(=O)NCc1ccccc1Cl	/	/	1.0%	-12%	-0.4%	0.1	3%
O=C(N/N=C/c1cccc(NC(=O)c2ccc(Cl)cc2)c1)c1cccc(O)c1	-0.3	23%	6.8%	-5%[15.4 µM]	/	-1.2	-17%
O=C(CSc1ccc2nnc(CCNC(=O)c3ccccc3)n2n1)Nc1ccc(F)cc1F	/	16%	-1.0%	-13%	-11%	-0.6	0%
CN1C2CCC1CC(NC(=O)c1ccc(Cl)cc1)C2 (stereo unspecified)	?	13%	-0.1%	4%[15.4 µM]	/	-1.5	5%
COc1cccc(NC(=O)CN2C(=O)c3cccnc3Oc3ccc(Cl)cc32)c1	13	5%	1.3%&2.4%	4%	-7.3%&-15%	9.4	-22%
C=CCNC(=O)C1CCC(CNc2nc(=S)[nH]c3ccccc23)CC1 (stereo unspecified)	-1.8	3%	0.4%	?	0.0%	2.1	5%
Cc1nn2c(-c3ccc(Cl)cc3)nnc2s1	0.2	12%	-3.6%[38.3 µM]	-16%	-0.6%	-0.9	9%
Nc1nc(SCC(=O)Nc2ccc(Br)cc2F)n[nH]1	2.5	19%	2.0%	-14%	-2.2%	-1.7	2%
C=CCN1C(=O)/C(=C2/Sc3ccccc3N2CC)SC1=S	?	6%	?	-8%	/	-2.1	?
CCCn1c(SCC(=O)NC(=O)NCc2ccccc2)n[nH]c1=O	/	/	0.2%	0%	0.3%	5.3	1%
COC(=O)c1ccc2cc(C)cc(C)c2n1	/	/	4.5%	/	5.2%	-3.9	/
c1ccc(CCNc2ccc3c(c2)Cc2ccccc2-3)nc1	/	/	6.1%	-5%	/	1.5	-3%
CCOC(=O)C1C2C=CC3(CN(C4CCCC4)C(=O)C13)O2 (stereo unspecified)	2.9	13%	0.3%	8%	-0.6%	-1.8	12%
CC1(C)CC[C@]2(C(=O)O)CC[C@]3(C)C(=CCC4[C@@]5(C)CC[C@H](O)C(C)(C)C5CC[C@]43C)C2C1 (stereo partly specified)	1.9	20%	0.7%	/	1.2%	-1.8	1%
Cc1ccc(-c2ccc3nnc(SCC(N)=O)n3n2)cc1	-0.3	-1%	3.6%	6%[15.4 µM]	/	-5.6	3%
CSc1nnc2c3cc(F)ccc3n(C)c2n1	-0.7	?	-1.5%	-11%	1.4%	-3.6	4%
Cc1cc(C)c(C2=NOC3C4CCC(C4)C23)c(C)c1 (stereo unspecified)	4.4	-5%	6.3%	-15%	1.4%	-0.2	-10%
Cc1cc(C(=O)NC2CCCCC2)c(C)o1	/	/	1.5%	3%	1.5%	3.6	?
CCNC(=O)C1(C)CCN(C(=O)c2cccc(C#N)c2)C1 (stereo unspecified)	/	/	0.3%	/	1.3%	0.8	/
COC(=O)C(O)(CC(=O)Nc1ccc(OC)cc1)C(F)(F)F (stereo unspecified)	-0.7	11%	0.3%	31%	-1.5%	2.5	-2%
O=C(Nc1ccc(C(F)(F)F)cc1[N+](=O)[O-])O[C@H]1[C@H](Cc2ccccc2)NS(=O)(=O)[C@H]2C[C@@H]3C=C[C@]12O3	/	/	5.4%	-34%[inhibitor]	1.8%&0.1%	?	-2%
CCOC(=O)N1CCN(S(=O)(=O)c2ccc(C(=O)N(CCCN(C)C)c3nc4c(F)cc(F)cc4s3)cc2)CC1	/	/	0.8%	20%[15.4 µM]	0.3%	-2.6	-3%
COC(=O)C(C(C)C)N1CCc2c(C)nc3c(C#N)cnn3c21 (stereo unspecified)	5.5	17%	-1.2%	?	/	0.5	4%
O=C(COc1ccc(-c2nnco2)cc1)Nc1ccc(F)c(Cl)c1	/	/	2.9%	?	/	1.5	-14%
CCOC(=O)Cc1nnc(NC(=O)Nc2ccccc2)s1	1.0	14%	3.3%	0%	-1.2%	-1.3	3%
COc1ccc(C(C)(C)C)cc1NC(=O)c1c(C)noc1C	1.2	-1%	5.6%[38.3 µM]	-3%	0.1%	1.6	-13%
CCC(C)(C)C(=O)Nc1cc([N+](=O)[O-])ccc1Cl	4.3	18%	2.3%	-47%[inhibitor]	0.8%	-3.9	15%
O=C(NCc1ccncc1)c1ccc(NS(=O)(=O)c2ccccc2)cc1	/	/	1.2%	-25%	-0.1%	-3.2	14%
Cc1ccc(O)c(NC(=O)c2cc(-c3ccccc3Cl)on2)c1	2.1	12%	1.2%	4%[15.4 µM]	-12%	9.5	-11%
Cn1c2ccccc2c(=O)c2ccc(C#Cc3ccc(N)cc3)cc21	?	-5%	3.8%	/	2.7%	1.6	-6%
O=C(CCCN1C(=O)c2ccccc2C1=O)Nc1sc2c(c1C(=O)NCc1ccco1)CCC2	0.3	-13%	1.6%[38.3 µM]	15%	-1.9%	0.3	-9%
O=C(CCCCCn1c(SCc2ccncc2)nc2ccccc2c1=O)NCc1ccco1	3.6	-22%	-3.3%[38.3 µM]	-42%	-1.6%	0.4	-17%
CCC(CC)=NNc1cccc([N+](=O)[O-])c1	1.8	4%	0.3%	-20%	0.8%	2.4	7%
CC(C)CC(=O)NC(Nc1ccccc1F)C(Cl)(Cl)Cl (stereo unspecified)	0.4	9%	5.3%	0%	0.4%	-4.3	1%
Cc1nn(-c2nc3ccccc3s2)c(C)c1Oc1ccccc1O	-3.1	-19%	23%[38.3 µM]	8%	-15%	0.3	?
CC(C)(C)NS(=O)(=O)c1ccc(NC(=O)C2CCCCC2)cc1	3.3	11%	-1.9%	-30%	/	-2.3	4%
CCOC(=O)c1ccc(NC(=O)COc2ccccc2CNC2CCCC2)cc1	-2.4	1%	-0.4%	4%	/	-1.2	12%
COc1ccccc1Nc1nnc(SCC(=O)NC2CCCC2)s1	/	/	-0.1%	-19%	-1.9%	-2.6	1%
O=C(NC1CCCC1)c1ccc(CN2CCOCC2)cc1	0.6	-4%	-1.2%	-50%[inhibitor]	-1.6%	-4.1	1%
C=CCn1c(Sc2ncc([N+](=O)[O-])s2)n[nH]c1=O	5.2	10µM*	2.1%	7%[15.4 µM]	-0.5%	4.1	1%
CCc1ccc(N2CC(C(=O)N/N=C/c3ccccc3)CC2=O)cc1 (stereo unspecified)	/	/	0.7%	-9%	-0.3%	0.0	-4%
O=C(CSc1ccc2nnc(CCNC(=O)c3ccccc3)n2n1)NCCc1ccccc1	/	12%	-0.8%	?	-14%	-0.6	8%
C=CCN(CC=C)CCOc1ccc(C)cc1[N+](=O)[O-]	-8.4	?	1.3%	-2%	0.9%	0.9	6%
CC1=C(C(=O)OC(C)C)C(c2ccc(Cl)cc2)n2c(s/c(=C\c3ccc(OCC(=O)O)cc3)c2=O)=N1 (stereo unspecified)	?	-3%	-0.6%	3%	0.2%	-5.1	-18%
CC(C)N(C(=O)[C@H]1C[C@H](CC(=O)NCCC2=CCCCC2)C(=O)N2CCc3c([nH]c4cc(-c5ccco5)ccc34)[C@]12C)C(C)C	/	/	5.6%	/	3.4%	0.6	-27%
C[C@]12c3[nH]c4ccc(Cl)cc4c3CCN1C(=O)[C@@H](CC(=O)NCC13CC4CC(CC(C4)C1)C3)C[C@@H]2C(=O)N1CCCCC1	/	/	?	/	0.4%	-0.3	-14%
Cc1ccc(/C=C/c2nnc(-c3cccs3)o2)cc1	4.0	12%	/	23%	8.9µM*	-0.8	0%
COC(=O)C1CCN(CC(=O)Nc2ccc3c(c2)OCCO3)CC1	/	/	-3.1%	-60%[inhibitor]	/	?	6%
O=C(CN1CCN(S(=O)(=O)c2ccccc2)CC1)N1CCCCC1	/	/	0.0%	-27%	-0.5%	3.5	11%
